Vaccinia pol inh = blocks vaccinia virus processive DNA synthesis; normalized absorbance, % (test concentration not listed); AID 493162; in vitro processive DNA synthesis, absorbance read-out; stronger effect = lower value; some inactives read as strong as hits; actives 0.94% (n = 46,000);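 active = replicate mean up to 90% and picked by the depositor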;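 also: 100% = median of the test wells of a plate; 100 nL library stock went into each well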
Numbers without * were called inactive; ! = a repeat was not active. The list is partial (hit frequency here may not be typical).

SMILES	Vaccinia pol inh
CNc1c2c(nn1C)CCCC2	104
CC(=O)N1CC(O)C[C@H]1C(=O)O (stereo not given in full)	96
CCn1cc(C(=O)O)c(=O)c2cc(F)c(N3CCNCC3)nc21	99
Nc1c2c(nc3ccccc13)CCCC2O (stereo not given)	100
CCOC(=O)NNc1nncc2ccccc12	99
CCCCOc1ccc(CC(=O)NO)cc1	99
Cc1cccc(Nc2cc(Cl)nc(SCC(=O)O)n2)c1C	98
O=C(O)/C=C/c1ccc(O)cc1	101
CCCCCC(=O)O[C@]1(C(C)=O)CCC2C3CCC4=CC(=O)CC[C@]4(C)C3CC[C@@]21C (stereo not given in full)	96
O=C(O)CNC(=O)c1ccccc1	98
NC(=NCc1ccccc1)NC(=O)c1nc(Cl)c(N)nc1N	59*!
C#C[C@]1(O)CCC2C3CCC4=CC(=O)CC[C@@H]4C3CC[C@@]21CC (stereo not given in full)	100
C=C1c2cccc(O)c2C(O)=C2C(=O)[C@]3(O)C(O)=C(C(N)=O)C(=O)[C@@H](N(C)C)[C@@H]3[C@@H](O)[C@H]12	55*
CC(=O)Nc1ccc(O)cc1	98
CC(=O)Nc1ccccc1	94
Cn1c(=O)c2c(ncn2CCO)n(C)c1=O	98
CCCCCCc1ccc(O)cc1O	99
CCCCC1C(=O)N(c2ccccc2)N(c2ccccc2)C1=O	97

As a short view, part of the list above:
SMILES	Vaccinia pol inh
CNc1c2c(nn1C)CCCC2	104
CC(=O)N1CC(O)C[C@H]1C(=O)O (stereo not given in full)	96
CCn1cc(C(=O)O)c(=O)c2cc(F)c(N3CCNCC3)nc21	99
Nc1c2c(nc3ccccc13)CCCC2O (stereo not given)	100
CCOC(=O)NNc1nncc2ccccc12	99
CCCCOc1ccc(CC(=O)NO)cc1	99
Cc1cccc(Nc2cc(Cl)nc(SCC(=O)O)n2)c1C	98
O=C(O)/C=C/c1ccc(O)cc1	101
CCCCCC(=O)O[C@]1(C(C)=O)CCC2C3CCC4=CC(=O)CC[C@]4(C)C3CC[C@@]21C (stereo not given in full)	96
